Bioassay records from PubChem BioAssay.
PINK1 modulator = changes PINK1 expression; PINK1 immunofluorescence, high-content cytometry, 24 h; Potency, µM (highest dose often 76.6 µM), for inactives: top-dose activation (PINK1 increase), actives largely listed as activators; hit rate 0.2% among 410,000; AID 624263; active = well fitted activation curve with a large enough effect; inconclusive = small, poorly fitted or top-dose-only effect; inactive = flat fitted curve, though single readings scatter; cell line not stated here;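 also: potency is read from the fitted curve at half-maximal effect; % of control where 0% means no effect; nearly all actives have a fitted effect of over 65% in size; a mitochondrial uncoupler was the plate control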
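Fluorescence from anti-PINK1 antibody, together with nuclear and cell stains, was scanned on a laser-scanning cytometer. Before staining, stable-line cells were incubated 24 hours with compounds at 5 concentrations; primary antibody 12 h at 10 degrees C.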
gsp antag = antagonizes gsp, the McCune-Albright syndrome mutation. gsp-mutant cells, cAMP HTRF, 30 min; control for the full effect not named in the record. Potency, µM (doses to about 76.9 µM), for the others: at the highest dose activity change, negative = inhibition, most hits filed as inhibitors. hit rate 0.4% among 340,000; active = falling curve of any shape with a large fitted effect; inconclusive = falling curve, mostly with a smaller effect; inactive = flat or rising curve; cell line not stated here;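 also: intracellular cAMP measured with PDE inhibitor Ro 20-1724 present during compound exposure; potency is read from the fitted curve at half-maximal effect; % is scaled to controls: 0 for no effect and ±100 for the full control effect; nearly all actives have a fitted effect of over 65% in size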
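Cells, 2000/well, grown 16–24 h in DMEM 10% FBS with 0.5 mg/ml G418, then compounds plus […] (300 uM addition stock), 30 min at 37C. cAMP read by HTRF (cAMP-d2 and anti-cAMP antibody-K in lysis buffer) after 30 min RT.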
Menin-MLL FL inh = menin-MLL binding inhibition, fluorescein peptide. Fluorescence polarization, fluorescein-MLL peptide displacement from menin. AID 1766. FP activity change, % at 61.4 µM. 290,000 tested, under 10 active; inconclusive = falling polarisation curve, or a change in total fluorescence; inactive = total fluorescence flat and polarisation flat or rising; no compound was filed as active; the % refers to the polarisation; negative = inhibition;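 also: % of control where 0% means no effect; inhibitors lower the polarisation; unlabelled MLL peptide was the positive control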
D2 ag = agonists of human D2 dopamine receptor (beta-arrestin). DiscoveRx PathHunter D2 beta-arrestin, luminescence, 90 min; 100% = 57 uM dopamine signal. activation, % (concentration not given with the values). hit rate 0.084% among 360,000. AID 624465; in the data active = activation above about 40%; inconclusive = about 15% to 40%; inactive = below about 15%; also: compound concentration not given in the record; the text of the record calls up to 30% inactive
Target sequence (P14416 whole entry, looked up): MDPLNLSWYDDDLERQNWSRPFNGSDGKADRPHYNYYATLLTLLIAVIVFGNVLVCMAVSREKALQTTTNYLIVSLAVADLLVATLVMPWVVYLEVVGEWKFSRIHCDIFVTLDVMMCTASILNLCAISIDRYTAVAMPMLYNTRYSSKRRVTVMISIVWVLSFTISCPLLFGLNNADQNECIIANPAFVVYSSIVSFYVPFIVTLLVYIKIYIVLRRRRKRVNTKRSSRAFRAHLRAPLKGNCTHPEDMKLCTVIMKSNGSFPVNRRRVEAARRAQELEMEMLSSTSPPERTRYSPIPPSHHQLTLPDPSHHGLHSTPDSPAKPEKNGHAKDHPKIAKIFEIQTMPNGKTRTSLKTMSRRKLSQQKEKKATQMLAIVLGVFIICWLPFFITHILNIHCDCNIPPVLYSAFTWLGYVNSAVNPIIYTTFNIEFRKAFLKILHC
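DiscoveRx PathHunter D2 beta-arrestin cells (2,100/well) attached overnight, then compound-stimulated 90 min at 37 C in HBSS/10 mM HEPES/0.1% Tween-20 buffer; beta-galactosidase complementation read by luminescence after 1 h at ambient temperature. Dopamine 57 uM final (EC100) as control.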
ClpP mod = qHTS Assay for Activators of ClpP; Potency, µM (titrated, usually from 57.5 µM), for the others: at the top dose activity change, negative = active; ATP-dependent Clp protease proteolytic subunit (Bacillus subtilis (strain 168)), P80244; purified B. subtilis ClpP, FRET peptide cleavage, 20 min; hit rate 1.9% among 340,000; active = well fitted falling curve with a large enough effect; inconclusive = small, poorly fitted or top-dose-only effect; inactive = no such curve, though single readings can be large or run the other way; also: potency is read from the fitted curve at half-maximal effect; the source files actives as falling curves though it sought activators and does not explain the sign; nearly all actives have a fitted effect of over 65% in size; many hits overshoot -100%
Target sequence (P80244 whole entry, looked up): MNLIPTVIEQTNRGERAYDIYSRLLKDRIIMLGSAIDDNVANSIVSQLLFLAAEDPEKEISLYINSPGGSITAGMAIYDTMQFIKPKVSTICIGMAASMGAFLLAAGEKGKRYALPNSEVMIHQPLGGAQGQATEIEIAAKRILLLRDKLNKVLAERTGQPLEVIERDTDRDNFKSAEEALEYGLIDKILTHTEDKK
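Purified B. subtilis ClpP, 10 microg/mL final in Tris/HCl pH8 with KCl, BSA, glycerol and Tween-20, cleaved an Abz/nitrotyrosine-quenched decapeptide. Fluorescence (ex 320, em 430) was read at 0 and 20 min at room temperature. Delta was normalized to 5.8 microM ADEP and DMSO/no-enzyme controls.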
gsp agonist = activates gsp, the McCune-Albright syndrome mutation. gsp mutant cells, cAMP HTRF, 30 min; control for the full effect not named in the record. Potency, µM (doses to about 76.9 µM), for inactives: at the top dose activation (cAMP increase), actives largely listed as activators. hit rate 0.13% among 340,000. AID 624287; active = well fitted activation curve with a large enough effect; inconclusive = small, poorly fitted or top-dose-only effect, or another doubt; inactive = no such curve, though single readings can be large or run the other way; cell line not stated here;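 also: phosphodiesterase inhibitor Ro 20-1724 added with compounds to block cAMP breakdown; potency is read from the fitted curve at half-maximal effect; nearly all actives have a fitted effect of over 60% in size; about a fifth of the inactives were tested at one dose only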
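Cells in DMEM/10% FBS with G418 were pretreated with compounds in DMSO plus […] (300 uM stock) for 30 min at 37C. cAMP was measured by HTRF (cAMP-d2 plus anti-cAMP antibody-K) after 30 min at room temperature.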
Sfp PPTase inh = blocks B. subtilis Sfp PPTase activity. Q9F4F7. Biochemical Sfp PPTase activity, qHTS. Potency, µM, without a hit: max response, negative = inhibition, usual class: inhibitors. hit rate 3.5% among 310,000; active = well fitted inhibition curve with a large enough effect; inconclusive = small, poorly fitted or top-dose-only effect, or another doubt; inactive = no such curve, though single readings can be large or run the other way;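 also: the enzyme is Sfp with the accession as filed and its product quenches rhodamine fluorescence; potency is read from the fitted curve at half-maximal effect; 0% = enzyme reaction without inhibitor and -100% = no enzyme wells; top concentration of the series not given in the record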
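Fluorescence-quenching assay: 15 nM Sfp-PPTase preincubated 15 min at room temperature with compound, then 5 uM rhodamine-CoA and 12.5 uM BHQ-2-labelled YbbR peptide added. Fluorescence (ex 525/em 598 nm) read at start and after 30 min; difference gives rate.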
* = called active by the depositor; ? = inconclusive; / = not tested or not shown; [ ] = dose if it differs, or a comment.

SMILES,PINK1 modulator,gsp antag,Menin-MLL FL inh,D2 ag,ClpP mod,gsp agonist,Sfp PPTase inh
CN1/C(=C\C=N\NC(=O)c2ccc(O)cc2)C(C)(C)c2ccccc21,?,?,1.6,-3.0,-1.8%,-13%,4%
O=C(c1cc2ccccc2oc1=O)N1CCCN(C(=O)c2cc3ccccc3oc2=O)CC1,-0.5%,3%,/,-1.8,3.6%,36%,/
Cc1ccc(S(=O)(=O)N2CCN(C(=O)c3cc4c(C)nn(-c5ccccc5)c4s3)CC2)cc1,14%[38.3 µM],18%,2.1,-1.9,-14%,-31%,9%
O=C(c1ccc(N2C(=O)C3CC=C(Cl)CC3C2=O)cc1)N1CCCCC1 (configuration not stated),-1.8%,0%,0.5,-1.7,-2.1%,24%,7%
CCOc1ccccc1-c1nc(-c2ccncc2)no1,-0.7%,-15%,1.6,-3.1,0.2%,-27%,7%
Cc1nn(CC(=O)Nc2ccc(Cl)cn2)c(C)c1[N+](=O)[O-],0.4%,4%,2.7,-2.3,-0.5%,2%,8%
O=C(OCC(=O)N1CCN(c2ccccc2)CC1)c1ccncc1,1.2%,9%,/,4.0,-2.7%,-38%[inhibitor],/
COC(=O)c1ccc(NC(=O)C23CC4CC(C2)CC(n2cncn2)(C4)C3)cc1,-0.4%,14%,2.6,-3.1,-1.1%,1%,9%
Cc1ccccc1NC(=S)NCc1ccccc1,-2.1%,12%,-0.4,-5.0,-2.2%,-37%[inhibitor],7%
COc1ccc(CCn2c(N3CCN(Cc4ccccc4)CC3)nc3c2c(=O)[nH]c(=O)n3C)cc1,3.2%,-3%,-0.9,-2.3,-2.0%,-6%,7%
CCOC(=O)c1ccc(OC)c(OC)c1Cl,0.7%,13%,2.1,-4.5,2.5%,21%,32%[activator]
COc1ccc(C)cc1NC(=O)C1CCN(S(=O)(=O)c2ccc3c(c2)NC(=O)CO3)CC1,0.3%,-7%,/,-0.6,-0.1%,-31%[inhibitor],9%
Cc1ccc2nc(-c3ccccn3)[nH]c2c1,-1.0%,8%,1.3,-0.9,/,-7%,-23%
COc1ccc(N(CC(=O)NCCc2ccccc2)C(=O)c2csnn2)cc1,-1.7%,-5%,-4.0,-2.3,/,-28%,-5%
CCOC(=O)C1(c2ccccc2)SC(C(=O)OCC)(c2ccccc2)S1 (configuration not stated),-1.2%,/,/,-4.0,-1.3%,?,/
COc1cc(/C=C2/CC(C)OC2=O)c([N+](=O)[O-])cc1OC (configuration not stated),-0.1%,-4%,-1.6,-0.9,-3.0%,-12%[15.4 µM],9%
O=C(CN1C(=O)C2C3C=CC(C3)C2C1=O)Nc1ccc2c(c1)OCCO2 (configuration not stated),-0.3%,2%,9.5,-0.1,-2.5%,-23%,22%
CCOC(=O)CNC(=O)CN1C(=O)CCS(=O)(=O)c2ccccc21,-2.2%,2%,-1.3,0.2,0.2%,15%,5%
CCCNC(=O)C/C(C)=N/NC(=O)COc1ccc(C)cc1Br,11%,10%,-1.8,-2.8,-0.9%,-21%,-8%
Cc1ccc(C2SCC(=O)N2Cc2ccccc2)cc1 (configuration not stated),-0.9%,-1%,3.4,-2.0,-0.5%,3%,19%
COc1cccc2c(=O)n(CC(=O)N3CCc4ccccc43)ccc12,-0.8%,6%,3.1,2.6,-3.2%,10%,12%
Cc1ccc(NC(NC(=O)Cc2ccccc2)C(Cl)(Cl)Cl)cc1 (configuration not stated),6.5%,-17%,2.1,0.4,-4.0%,-1%,10%
O=C(Nc1cc(S(=O)(=O)N2CCCC2)ccc1Cl)C1=COCCO1,-2.0%,9%,1.1,2.2,1.0%,-13%,-3%
CC(C)(C)C(=O)CC1(O)C(=O)N(Cc2ccccc2)c2ccccc21 (configuration not stated),-3.7%[38.3 µM],7%,2.2,-0.7,-24%,-61%[inhibitor],9%
CC(c1ccon1)N(C)Cc1cn(C)nc1-c1cccc(Cl)c1 (configuration not stated),0.6%,3%,0.5,1.9,/,-12%[15.4 µM],1%
CCOc1ccccc1OCCC(=O)N1CCN(S(=O)(=O)c2ccccc2[N+](=O)[O-])CC1,2.0%,-21%,/,-1.7,-0.3%,-18%,/
N#CCCn1c(=O)c(-c2cccs2)nc2cnc(Oc3cccc(Cl)c3)nc21,21%,/,?,/,/,/,4%
CCc1ccc(-c2nc(CS(=O)CC(=O)NCc3ccco3)c(C)o2)cc1 (configuration not stated),-1.3%,14%,0.5,-0.2,-6.9%,?,-10%
CNc1ccc(Cl)cc1S(=O)(=O)c1ccccc1[N+](=O)[O-],2.0%,/,/,1.9,-5.2%,/,/
Cc1ccc(C2(c3noc(CN(C)CC4COCCO4)n3)CCCC2)cc1 (configuration not stated),-0.6%,-5%,1.4,1.5,/,-12%,-3%
OC(c1ccc(F)c(F)c1)c1ncc(-c2cccc(C(F)(F)F)c2)[nH]1 (configuration not stated),27%,/,/,-3.4,2.0%,/,/
CCCNC(=S)N1CCC(Cc2ccccc2)CC1,-0.6%,10%,/,10,-1.5%,4%,15%
CCc1ccccc1NC(=O)CNCC(=O)Nc1ccccc1CC,-0.7%,2%,0.4,5.0,/,-39%[inhibitor],0%
CC1CC(C)CN(C(=O)c2ccc(-c3ccc([N+](=O)[O-])cc3)o2)C1 (configuration not stated),8.3%,-28%,/,3.6,1.1%,2%,/
CCOc1ccc(CCNC(=O)COC(=O)c2cc(=O)[nH]c3ccccc23)cc1OCC,2.9%,-5%,/,-2.6,16%,0%,/
COc1ccc(OC)c(-n2nnnc2SCC(=O)Nc2ccc(C(=O)N3CCCCC3)cc2)c1,-4.5%[38.3 µM],?,5.4,0.7,0.7%,-40%,0%
COc1ccccc1CNC(=O)C/C(C)=N/NC(=O)Cc1ccccc1,-1.4%,12%,-2.3,-2.8,0.1%,5%,17%
CC1(C)CC2(CC(c3ccccc3F)c3cc(Cl)c(O)cc3O2)NC(=S)N1 (configuration not stated),0.5%,1%,-0.2,5.6,/,-12%[15.4 µM],5%
COc1ccc(COC(=O)c2ccc(S(=O)(=O)N3CCC(C)CC3)cc2)cc1,7.9%,8%,/,-8.0,/,1%[15.4 µM],-1%
Cc1cc[n+](CC(=O)c2cccs2)cc1,4.4%[38.3 µM],3%,1.3,-1.5,-0.7%,2%,-27%
Cc1ccc(C(=O)CSc2ncn[nH]2)cc1,-2.9%,-3%,6.1,0.0,-4.2%,-19%,?
CSC1=NCCN1C(=O)C(C)Oc1ccccc1 (configuration not stated),0.0%,4%,-1.1,0.0,-0.6%,-7%,8%
COc1ccc(-c2cn(Cc3ccc(C(N)=O)cc3)c(CCN)n2)cc1,-0.1%,0%,/,0.3,-4.0%,?,/
O=C(COC(=O)CNC(=O)c1ccco1)Nc1ccccc1OC(F)F,2.5%,-5%,0.3,-3.1,-1.7%,?,15%
Nc1nc(SCC(=O)NCCO)nc2sc3c(c12)CCCC3,0.4%,-9%,-1.1,0.3,/,11%[15.4 µM],22%
Cc1ccc(NS(=O)(=O)c2ccc(Br)s2)cc1S(=O)(=O)N1CCOCC1,-1.8%,-17%,0.2,6.1,/,-28%,0%
Cc1nc(N)sc1-c1nnc(SCC(=O)Nc2nccs2)n1C,-1.6%,6%,1.0,-1.7,-5.4%,0%,6%
CCOc1cc(/C=C2\SC(=N)N(c3nonc3N)C2=O)ccc1OCC(N)=O,8.1%,-23%,0.3,-3.4,0.1%,-10%,-16%
O=C1CSC(c2cn(-c3ccccc3)nc2-c2cccs2)N1CC1CCCO1 (configuration not stated),-0.8%,?,-5.6,-3.9,-8.1%,-58%[inhibitor],-10%
Cc1cc(C)n2cc(CSc3nnc(-c4ccccc4)c(-c4ccccc4)n3)nc2n1,2.3%,-4%,/,-0.2,-2.3%,-4%,/
COc1ccc(C(=O)c2c(C)oc3ccc(O)cc23)cc1,0.0%,-5%,1.0,3.0,-2.6%,25%,-3%
CN(C(=O)c1ccc(NC(=O)Cc2cccc(NC(=O)C3CCN(C(=O)C4CCCCC4)CC3)c2)cc1)C1CCCC1,1.7%,7%,/,0.9,-0.5%,/,/
Cc1ccc2oc(-c3ccc(NC(=O)c4ccc5c(c4)OCO5)cc3)nc2c1,12%,-4%,2.8,0.9,3.2µM*,-19%,5%
CCC(C)n1nnc2c(=O)oc3ccccc3c21 (configuration not stated),2.5%[38.3 µM],-4%,2.2,0.2,-0.1%,2%,12%
Cc1ccc(Nc2nnc(SC3CCOC3=O)s2)cc1 (configuration not stated),6.3%,2%,1.7,-0.5,/,27%,-2%
C/C(=N/NS(=O)(=O)c1ccc(Cl)cc1)c1ccc2c(c1)OCO2,1.8%,3%,/,-3.4,0.6%,-14%,/
O=C(/C=C/c1ccc(S(=O)(=O)N2CCOCC2)cc1)OCC(=O)c1ccc([N+](=O)[O-])cc1,0.6%,-16%,4.3,1.2,0.2%,0%,3%
CCOc1ccc(N(CC(=O)NC2CCCC(C)C2C)S(=O)(=O)c2c(C)noc2C)cc1 (configuration not stated),2.5%,-1%,4.7,0.2,-0.6%,?,18%

Whole records as entered above. Screens in order: PINK1 modulator | gsp antag | Menin-MLL FL inh | D2 ag | ClpP mod | gsp agonist | Sfp PPTase inh
Entry for O=C1CSC(c2cn(-c3ccccc3)nc2-c2cccs2)N1CC1CCCO1 (configuration not stated) → -0.8% | ? | -5.6 | -3.9 | -8.1% | -58%[inhibitor] | -10%
Entry for CCc1ccccc1NC(=O)CNCC(=O)Nc1ccccc1CC → -0.7% | 2% | 0.4 | 5.0 | / | -39%[inhibitor] | 0%
